High-throughput results deposited in PubChem by ICCB-Longwood Screening Facility, Harvard Medical School.
GIV-Gai inh: blocks GIV peptide binding to rat Galpha-i3; P08753; Galpha-i3/FITC-GIV peptide fluorescence polarization, 90 min; active compounds read low; scaled: aluminum fluoride 0%, vehicle 100%; percent of control (FP), % (concentration not given with the values); 0.42% of 210,000 active; AID 1224905;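 active means replicate mean at 85% of control or lower, very high polarization wells dropped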;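 further: wells of about 15 µL received 100 nL stock; the first replicate is given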
Target sequence (P08753 whole entry, looked up): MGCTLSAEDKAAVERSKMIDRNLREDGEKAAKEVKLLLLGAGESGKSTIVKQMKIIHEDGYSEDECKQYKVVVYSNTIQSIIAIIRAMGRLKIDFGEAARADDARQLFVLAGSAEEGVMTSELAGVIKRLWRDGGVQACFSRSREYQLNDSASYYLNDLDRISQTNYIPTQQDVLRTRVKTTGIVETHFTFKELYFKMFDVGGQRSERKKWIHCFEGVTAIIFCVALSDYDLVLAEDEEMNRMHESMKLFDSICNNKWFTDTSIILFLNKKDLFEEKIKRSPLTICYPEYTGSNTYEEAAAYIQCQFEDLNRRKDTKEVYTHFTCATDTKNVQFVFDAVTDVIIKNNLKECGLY
Numbers without * were called inactive.

Preview, two compounds:
smiles | GIV-Gai inh
C=CCNc1nc(Nc2ccc(Cl)cc2)nc(N2CCOCC2)n1 | 109
COC(=O)CN1C(=O)C2(C(C#N)=C(N)Oc3n[nH]c(-c4cc(OC)c(OC)c(OC)c4)c32)c2ccccc21 (configuration not stated) | 121

Main list, previewed entries included:
smiles | GIV-Gai inh
C=CCNc1nc(Nc2ccc(Cl)cc2)nc(N2CCOCC2)n1 | 109
COC(=O)CN1C(=O)C2(C(C#N)=C(N)Oc3n[nH]c(-c4cc(OC)c(OC)c(OC)c4)c32)c2ccccc21 (configuration not stated) | 121
N#CCSc1nc2ccc(Br)cc2c2nc3ccccc3n12 | 115
CC1CC2(C)Oc3ccccc3C3OCC1(COC(=O)Nc1ccccc1)C(C)C32 (configuration not stated) | 106
Cc1ccc(-n2ncc3c(NC(C)(C)C)ncnc32)c(C)c1 | 106
O=C1Nc2ccccc2Oc2cc(Oc3ccccc3Br)c(S(=O)(=O)N3CCCC3)cc21 | 105
CCOCCn1cnc2sc(C(=O)N3CCC(C(=O)OCC)CC3)c(C)c2c1=O | 110
Cc1nc(-c2cccc(S(=O)(=O)Nc3ccc(S(N)(=O)=O)cc3)c2)no1 | 104
CC(C)CCNC(=O)C1CCCN(C(=O)c2ccc(NC(=O)c3ccc(Cl)cc3)cc2)C1 (configuration not stated) | 112
Cc1nnc(-c2c(C)[nH]c(C)c2S(=O)(=O)N2CCN(CC(C)C)CC2)o1 | 99
COc1ccc(-c2noc(Cc3nc(-c4ccc(C)cc4)cs3)n2)cc1 | 102
O=C(c1ccccc1[N+](=O)[O-])N1N=C(C(F)(F)F)CC1(O)C(F)(F)F (configuration not stated) | 109

New compounds follow:
smiles | GIV-Gai inh
O=S(=O)(c1cccc(F)c1)N1CCn2cccc2C1c1ccccc1 (configuration not stated) | 105
O=C(c1cnc(N2CCCCC2)c2ccccc12)N1CCOCC1 | 105
N#CCCC1(CCC#N)c2ccccc2-c2nc3ccccc3cc21 | 112
O=S1(=O)c2ccccc2S(=O)(=O)N1c1ccc(Oc2ccc(Cl)cc2)cc1 | 111
CC(C)CCNS(=O)(=O)c1ccc2[nH]c3nc4nc(-c5ccc(Br)cc5)cn4nc3c2c1 | 120
CCSc1nnc(-c2nn(C)c3c2CN(S(=O)(=O)c2ccc(C(C)C)cc2)CC3)n1CC | 107
CC1=C(c2ccc(Cl)cc2)S(=O)(=O)N=C1N1CCCN(C(=O)C(C)(C)C)CC1 | 100
CC1CCN(C(=O)CS(=O)Cc2cnn(-c3ccccc3)c2-n2cccc2)CC1 (configuration not stated) | 100
Cc1ccc(CNC2=NCCNC23CCN(S(=O)(=O)c2ccc(C)c(C)c2)CC3)cc1 | 109
Cc1ccc(-c2noc(-c3nn(-c4ccc(C)cc4)ccc3=O)n2)cc1 | 102
CC1(C(=O)NCc2ccc(F)cc2)CCCN(C(=O)CSc2ccccc2)C1 (configuration not stated) | 105
O=C(CCc1nc(CSc2nc3ccc(Cl)cc3[nH]2)no1)Nc1nncs1 | 103

(listing goes on)
smiles | GIV-Gai inh
COc1cc(-c2nc(-c3ccc(NC(=O)c4ccco4)cc3)no2)cc(OC)c1OC | 104
Cc1ccccc1C1N2CC3(C)CN1CC(C)(C2)C3=O (configuration not stated) | 111
CCCCc1nc2c3ccccc3n(CC(=O)N3CCN(c4ccccc4OC)CC3)c(=O)n2n1 | 97
Cc1ccc(OC(=O)CSc2nc3c(c(-c4ccco4)c2C#N)CN(C)CC3)cc1 | 138
COc1ccc2c(c1)C(O)(c1c[nH]c3ccccc13)C(=O)N2 (configuration not stated) | 104
CCN(CC)c1ccc(N=c2ssc3c2-c2cc(C)ccc2NC3(C)C)cc1 | 116
Cc1ccc(C(=O)Nc2cnc(N3CCN(c4cc(Cl)ccc4C)CC3)c(C(=O)O)c2)cc1 | 113
O=C(Nc1ccc(F)cc1F)N1CCC(n2cnc3ccc(F)cc3c2=O)CC1 | 105
CCCN1CCN(CCNC(=O)c2cc3c(s2)CN(C2CC2)C3)CC1 | 108
Cc1sc(-c2nc(C(C)C)cs2)cc1S(=O)(=O)Nc1ccccc1F | 104
Cc1ccccc1-c1cc2n(C)c(C)c(CCC(=O)NCC3CCCO3)c(=O)n2n1 (configuration not stated) | 108
Cc1cc2c(cc1C)NC1(CCCCCC1)C(=NCc1ccc3c(c1)OCO3)N2 | 95

Next compounds:
smiles | GIV-Gai inh
COc1cccc(CNC(=O)c2cc(S(=O)(=O)N3CCCC3)ccc2Cl)c1 | 109
Cc1nc(-c2cc(S(=O)(=O)Nc3ccc(Cl)cc3F)c(C)s2)cs1 | 102
CCN(C(=O)c1ccc(N2CC3CC(C2)c2cccc(=O)n2C3)c(NC(=O)/C=C/c2ccccc2)c1)c1cccc(C)c1 (configuration not stated) | 106
COc1ccc(C2CC(=O)Nc3c2cc(Br)c2ccccc32)cc1OC (configuration not stated) | 104
CCOC(=O)C1=C(C)NC2=C(C(=O)c3ccccc32)C1c1ccccc1OCc1ccccc1F (configuration not stated) | 113
Cc1ccc(NC(=O)COc2ccc(Cl)cc2-n2cnnc2)c(O)c1 | 107
CCC1Oc2cc(S(=O)(=O)N(C)CC(=O)N3CCCC3)c(C)cc2NC1=O (configuration not stated) | 104
Cc1nc(CSc2nc3ccccc3c(=O)n2CCc2ccccc2)cs1 | 102
COc1cccc(-c2cn3c4c(=O)n(C)c(=O)n(C)c4nc3n2-c2cc(C(C)C)c(O)cc2C)c1 | 103
COc1cccc2cc(-c3nc(-c4ccc5ccccc5c4)cs3)c(=O)oc12 | 109
COc1cccc(-n2nnc3c(N4CCN(S(C)(=O)=O)CC4)ncnc32)c1 | 104
CC(C)OCCCNC(=O)c1ccc2c(=O)n(Cc3ccco3)c(SCC(=O)Nc3ccccc3Cl)nc2c1 | 111

Further results:
smiles | GIV-Gai inh
Cc1cc(-n2c(=S)sc3c(=O)[nH]c(SCC(=O)Nc4nccs4)nc32)ccc1Cl | 100
CCOc1ccc(C2c3[nH]c4ccccc4c3CCN2C(=O)c2ccccc2)cc1 (configuration not stated) | 113
CCN(CC)c1nc(N2CCOCC2)nc(C)c1[N+](=O)[O-] | 106
COCCNC(=O)c1ccc2c(=O)n(Cc3ccco3)c(SCc3ccc(F)cc3Cl)nc2c1 | 105
Cc1[nH]n(-c2cccc(Cl)c2)c(=O)c1C=Nc1ccc(I)cc1 | 124
Cc1ccc(-n2[nH]c(C)c(C=Nc3ccc(C(=O)N(C)C)cc3)c2=O)cc1C | 114
CCN(CC)CCNS(=O)(=O)c1cc(-c2nc(C)c(C)s2)sc1C | 103
COC(=O)c1c(C)oc2ccc(N(C(C)=O)S(=O)(=O)c3ccc(C(C)(C)C)cc3)cc12 | 104
Cc1cc(=O)oc2c1ccc1oc(C(=O)c3ccc(Cl)cc3)c(-c3ccccc3)c12 | 121
COc1cccc(N2CCN(c3ncnc4c3cnn4-c3ccc(C)cc3C)CC2)c1 | 116
COC(=O)c1c(-c2ccc(Cl)cc2)noc1Nc1ccc(OC)cc1OC | 111
CCc1csc2nc(C)cc(=O)n12 | 102

Carrying on.
Molecule	GIV-Gai inh
COc1ccc(-c2nc3c([nH]2)c(=O)n(C)c(=O)n3C)cc1	98
Clc1cc(Cl)c2nc(-c3ccccc3)c(-c3ccccc3)nc2c1	113
COc1cccc(S(=O)(=O)Nc2cccc(-c3nnc(-c4ccccc4)o3)c2)c1	101
CCc1ccc(NS(=O)(=O)c2ccc3[nH]cc(C(=O)N4CCc5ccccc5C4)c(=O)c3c2)cc1	105
NS(=O)(=O)c1ccc(CCn2c(-c3ccc(-c4ccccc4)cc3)csc2=Nc2ccccc2)cc1	107
O=C(CNC(=O)c1ccc(Cl)cc1)NCc1cscn1	110
CC(C)NC(=O)c1ccc(-c2nc3cc(NS(=O)(=O)Cc4cccc(F)c4)ccc3n2C)cc1	98
O=c1ccn(-c2cccc(F)c2)nc1-c1nc(-c2ccc(F)c(Cl)c2)no1	101
O=C(CCc1nc(CSc2nnc(-c3ccccc3)o2)no1)Nc1ccc(F)c(Cl)c1	102
Cc1ccc(-c2nn3c(=O)cc(CN4CCN(C(=O)Nc5cc(C)ccc5C)CC4)nc3s2)cc1	96

Later entries:
Molecule	GIV-Gai inh
Cc1onc(-c2ccccc2Cl)c1C(=O)Nc1sc2c(c1C#N)CCCC2	108
O=C(Nc1ccccc1Cl)c1ccc(F)c(S(=O)(=O)N2CCN(c3ccccc3Cl)CC2)c1	112
CCc1nc2ccc(C(=O)NCCN3CCN(C)CC3)cc2nc1CC	97
Cc1ccc(C)c(N2CCN(S(=O)(=O)c3cc(-c4cnn5c(C)cc(C)nc45)ccc3C)CC2)c1	101
COc1ccc(-c2[nH]nc3c2C(c2ccc(OC)c(OC)c2OC)C(C#N)=C(N)O3)cc1OC (configuration not stated)	108
Cc1noc(C)c1S(=O)(=O)N1CCCn2nc(-c3ccc(C(F)(F)F)cc3)cc2C1	106
CCSC1=C(C#N)[C@H](c2ccccc2[N+](=O)[O-])C(C(C)=O)=C(C)N1	114
COc1ccc(CCNC(=O)CSc2nc3ccccc3c(=O)n2CCCC(=O)NCc2ccccc2)cc1OC	106
CCN1CCCn2nc(C3CCN(C(=O)NCCCOC)CC3)cc2C1=O	101
Cn1c(=O)[nH]c(=O)c2c1ncn2Cc1ccccc1	108

Not a retest: entries from further up.
Molecule	GIV-Gai inh
Cc1onc(-c2ccccc2Cl)c1C(=O)Nc1sc2c(c1C#N)CCCC2	108
O=C(Nc1ccccc1Cl)c1ccc(F)c(S(=O)(=O)N2CCN(c3ccccc3Cl)CC2)c1	112
CCc1nc2ccc(C(=O)NCCN3CCN(C)CC3)cc2nc1CC	97
Cc1ccc(C)c(N2CCN(S(=O)(=O)c3cc(-c4cnn5c(C)cc(C)nc45)ccc3C)CC2)c1	101
COc1ccc(-c2[nH]nc3c2C(c2ccc(OC)c(OC)c2OC)C(C#N)=C(N)O3)cc1OC (configuration not stated)	108
Cc1noc(C)c1S(=O)(=O)N1CCCn2nc(-c3ccc(C(F)(F)F)cc3)cc2C1	106
CCSC1=C(C#N)[C@H](c2ccccc2[N+](=O)[O-])C(C(C)=O)=C(C)N1	114

The listing continues.
Molecule	GIV-Gai inh
COc1ccc(NC(=O)c2nnc(C3CCN(C(=O)c4ccc(OC)cc4OC)CC3)s2)cc1	96
COc1ccc(C)cc1S(=O)(=O)n1nnc2cc(Cl)ccc21	111
CCC(=O)Nc1ccc(S(=O)(=O)N2CCCC(C)(C(=O)NCc3ccccc3)C2)cc1 (configuration not stated)	103
Cc1ccsc1C1CCCCCN1S(C)(=O)=O (configuration not stated)	97
CC1CCN(c2cc(N3CCN(C(=O)c4ccc(F)c(F)c4)CC3)c([N+](=O)[O-])cc2F)CC1	106
O=C1Nc2ccccc2Oc2cc(Cl)c(S(=O)(=O)N3CCCCC3)cc21	106
Cc1cc(NC(=O)CN2c3ccccc3NC3=C(C(=O)CC(C)(C)C3)C2c2ccco2)no1 (configuration not stated)	104
Cc1nc2cc(C(=O)NCc3ccccn3)ccc2n1-c1ccc(OCc2ccccc2)cc1	108
C=CCn1c(SCC(=O)Nc2sc3c(c2C(N)=O)CCC3)nc2sc3c(c2c1=O)CCCC3	99
CCOC(=O)c1c(NC(=O)c2ccccc2F)sc2c1CCN(C(C)=O)C2	107

Going on with the list.
Molecule	GIV-Gai inh
CCn1nc2n(Cc3ccc(F)cc3)c(=O)c3nn(C)cc3n2c1=O	103
Cc1cc(C)cc(NC(=O)CSc2nnc3c4sc(N5CCCC5)nc4ncn23)c1	105
O=C(Nc1cccc(-c2nnc(Cc3ccc4c(c3)OCO4)o2)c1)Nc1ccc2c(c1)OCCO2	105
O=C(CSc1nc2cc(C(=O)NCCCN3CCOCC3)ccc2c(=O)n1CC1CCCO1)Nc1nccs1 (configuration not stated)	113
COc1ccc(Cl)cc1NC(=O)CCc1nc(CSc2nc3ccccc3s2)no1	107
CCCC(=O)N1c2ccccc2C2=C(SC(C(=O)OC)=C(C(=O)OC)C23SC(C(=O)OC)=C(C(=O)OC)S3)C1(C)C	110
O=C(NC1CC1)c1snc(-c2ccccn2)c1NC(=O)C1CC1	95
CC(C)c1cc(C2CCCN2S(=O)(=O)c2cccc(Cl)c2)on1 (configuration not stated)	109
CC(C)(C)C(=O)N1CCCN(Cc2nc(-c3ccc(Cl)cc3)no2)CC1	98
COc1ccccc1N1CCN(C(=O)CSc2nc3ccc(N4CCOCC4)cc3c(=O)n2Cc2ccccc2)CC1	114

(more compounds)
Molecule	GIV-Gai inh
C=CCN1C(=O)/C(=C2\SC(=S)N(CCS(=O)(=O)O)C2=O)c2cc(Br)ccc21	106
CCOC(=O)N1CCN(C(=O)CCCCCn2c(=S)[nH]c3ccc(Br)cc3c2=O)CC1	101
c1cc(-c2csc(C3CC3)n2)cc(-c2noc(-c3ccc4c(c3)OCO4)n2)c1	102
O=C(Nc1ccccc1Cl)N1CCN(CCn2c(C(F)(F)F)nc3cccnc32)CC1	98
Cc1ccc(C(=O)N2CCCC2c2c(C)noc2C)s1 (configuration not stated)	107
Cc1ccc(C(=O)C[n+]2cc(-c3ccccc3)n3c2CCCCC3)cc1	124
CCCCCCc1nc2ccccc2c(=O)n1NC(=O)c1c(O)c2c(n(CC(C)C)c1=O)CCCC2	106
CCOC(=O)C1C(=O)NC(SCC(=O)Nc2c(C)cccc2C)=C(C#N)C1c1ccccc1OCC (configuration not stated)	107
N#CC1=C(N)OC2=C(C(=O)CC(c3ccco3)C2)C12C(=O)N(CC(=O)O)c1ccccc12 (configuration not stated)	112
O=C1C(=O)N(c2nncs2)C(c2ccccc2Cl)/C1=C(/O)c1ccc(F)cc1 (configuration not stated)	123

(more compounds)
Molecule	GIV-Gai inh
Nc1cc(C(=O)O)ccc1N1CCOCC1	100
COc1ccc(C2C(C#N)=C(N)Oc3n[nH]c(C)c32)cc1CN1CCN(c2ccc(F)cc2)CC1 (configuration not stated)	100
CCOCCOC(=O)C1=C(C)NC2(O)c3ccccc3C(=O)C12O (configuration not stated)	104
O=C1C2=C(C(c3ccccc3)=NCCN2)C(c2ccc3c(c2)OCO3)N1c1ccccc1 (configuration not stated)	105
CNC(=O)N1CCCC1c1cc(C)on1 (configuration not stated)	102

An excerpt, so the mix of outcomes need not match the whole.
